ClpP mod – qHTS Assay for Activators of ClpP | purified B. subtilis ClpP, FRET peptide cleavage, 20 min | ATP-dependent Clp protease proteolytic subunit (Bacillus subtilis (strain 168)), P80244 | AID 651965, 2013 | hit rate 1.9% among 340,000 | Potency, µM (highest dose often 57.5 µM), for the others: top-dose activity change, negative = active; active = well fitted falling curve with a large enough effect; inconclusive = small, poorly fitted or top-dose-only effect; inactive = no such curve, though single readings can be large or run the other way; note: potency is the fitted concentration of half-maximal effect; the source files actives as falling curves though it sought activators and does not explain the sign; nearly all actives have a fitted effect of over 65% in size; many hits overshoot -100%
Target sequence (P80244 whole entry, looked up): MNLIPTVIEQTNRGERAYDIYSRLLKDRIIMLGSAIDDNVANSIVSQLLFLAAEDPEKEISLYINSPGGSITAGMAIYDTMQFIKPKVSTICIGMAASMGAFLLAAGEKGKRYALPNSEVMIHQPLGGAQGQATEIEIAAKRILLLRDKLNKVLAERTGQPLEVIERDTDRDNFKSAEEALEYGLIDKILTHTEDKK
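Purified B. subtilis ClpP, 10 microg/mL final in Tris/HCl pH8 with KCl, BSA, glycerol and Tween-20, cleaved an Abz/nitrotyrosine-quenched decapeptide. Fluorescence (ex 320, em 430) was read at 0 and 20 min at room temperature. Delta was normalized to 5.8 microM ADEP and DMSO/no-enzyme controls.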
PINK1 modulator – modulators of PINK1 expression. PINK1 immunofluorescence, high-content cytometry, 24 h. Potency, µM (titrated, usually from 76.6 µM), without a hit: top-dose activation (PINK1 increase), actives largely listed as activators. hit rate 0.2% among 410,000; active = well fitted activation curve with a large enough effect; inconclusive = small, poorly fitted or top-dose-only effect; inactive = flat fitted curve, though single readings scatter; cell line not stated here;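 note: potency is the fitted concentration of half-maximal effect; % of control where 0% means no effect; nearly all actives have a fitted effect of over 65% in size; a mitochondrial uncoupler was the plate control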
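Stable cell line, 250 cells/well, 12 h attachment; compounds pinned at 5 concentrations, 24 h; CCCP control. Fixed with nuclear dye, primary antibodies 12 h at 10 degrees C, secondary plus cell stain; laser-scanning cytometer read.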
D2 ag – activates the human D2 dopamine receptor | activation, % (concentration not given with the values) | AID 624465 | hit rate 0.084% among 360,000 | DiscoveRx PathHunter D2 beta-arrestin, luminescence, 90 min; 100% = 57 uM dopamine signal | P14416; in the data active = activation above about 40%; inconclusive = about 15% to 40%; inactive = below about 15%; note: compound concentration not given in the record; the text of the record calls up to 30% inactive
Target sequence (P14416 whole entry, looked up): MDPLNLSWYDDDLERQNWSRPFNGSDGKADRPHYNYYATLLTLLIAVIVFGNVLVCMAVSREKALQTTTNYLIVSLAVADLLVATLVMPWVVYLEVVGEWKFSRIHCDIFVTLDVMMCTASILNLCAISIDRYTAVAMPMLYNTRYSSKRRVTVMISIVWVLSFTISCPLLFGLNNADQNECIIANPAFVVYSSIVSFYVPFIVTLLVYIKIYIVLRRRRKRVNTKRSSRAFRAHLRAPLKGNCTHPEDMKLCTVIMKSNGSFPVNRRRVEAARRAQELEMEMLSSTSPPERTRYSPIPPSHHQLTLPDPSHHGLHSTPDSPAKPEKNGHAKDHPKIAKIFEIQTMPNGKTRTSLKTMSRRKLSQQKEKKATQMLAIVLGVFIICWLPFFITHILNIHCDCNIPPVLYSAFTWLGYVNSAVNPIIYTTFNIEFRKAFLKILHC
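DiscoveRx PathHunter D2 beta-arrestin cells (2,100/well) attached overnight, then compound-stimulated 90 min at 37 C in HBSS/10 mM HEPES/0.1% Tween-20 buffer; beta-galactosidase complementation read by luminescence after 1 h at ambient temperature. Dopamine 57 uM final (EC100) as control.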
gsp antag – antagonizes gsp, the McCune-Albright syndrome mutation; gsp-mutant cells, cAMP HTRF, 30 min; control for the full effect not named in the record; Potency, µM (series often up to 76.9 µM), for inactives: at the highest dose activity change, negative = inhibition, hits mostly inhibitors; hit rate 0.4% among 340,000; AID 624288; active = falling curve of any shape with a large fitted effect; inconclusive = falling curve, mostly with a smaller effect; inactive = flat or rising curve; cell line not stated here;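 note: intracellular cAMP measured with PDE inhibitor Ro 20-1724 present during compound exposure; potency is the fitted concentration of half-maximal effect; % is set by controls: 0 for no effect and ±100 for the full control effect; nearly all actives have a fitted effect of over 65% in size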
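Cells in G418 medium, seeded 16-24 h, 37C; buffer exchange to DPBS + 1 mM CaCl2, 0.5 mM MgCl2, 0.05% BSA; cpds in DMSO + […] (300 uM stock), 30 min 37C; HTRF cAMP detection.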
Sfp PPTase inh – Sfp phosphopantetheinyl transferase inhibition; Q9F4F7; Biochemical Sfp PPTase activity, qHTS; Potency, µM, inactives show max response, negative = inhibition, actives largely listed as inhibitors; hit rate 3.5% among 310,000; AID 1490; active = well fitted inhibition curve with a large enough effect; inconclusive = small, poorly fitted or top-dose-only effect, or another doubt; inactive = no such curve, though single readings can be large or run the other way;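 note: the enzyme is Sfp with the accession as filed and its product quenches rhodamine fluorescence; potency is the fitted concentration of half-maximal effect; 0% = enzyme reaction without inhibitor and -100% = no enzyme wells; top concentration of the series not given in the record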
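Compounds were incubated with enzyme (final 15 nM) for 15 min at room temperature before substrate addition started the reaction. Fluorescence at 525 nm excitation, 598 nm emission was recorded immediately and after 30 minutes.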
gsp agonist – activates gsp, the McCune-Albright syndrome mutation; hit rate 0.13% among 340,000; Potency, µM (top dose mostly 76.9 µM), inactives show at the top dose activation (cAMP increase), actives largely listed as activators; AID 624287; gsp mutant cells, cAMP HTRF, 30 min; control for the full effect not named in the record; active = well fitted activation curve with a large enough effect; inconclusive = small, poorly fitted or top-dose-only effect, or another doubt; inactive = no such curve, though single readings can be large or run the other way; cell line not stated here;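 note: phosphodiesterase inhibitor Ro 20-1724 added with compounds to block cAMP breakdown; potency is the fitted concentration of half-maximal effect; nearly all actives have a fitted effect of over 60% in size; about a fifth of the inactives were tested at one dose only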
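Cells stably selected in G418 were plated at 2000/well, grown 16-24 hr, then given compounds in DMSO with the PDE inhibitor […] (300 uM solution added) for 30 min at 37C; cAMP was read by HTRF.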
Menin MLL FP FL – menin-MLL binding inhibition, fluorescein peptide; Fluorescence polarization, fluorescein-MLL peptide displacement from menin; 290,000 tested, under 10 active; FP activity change, % at 61.4 µM; inconclusive = falling polarisation curve, or a change in total fluorescence; inactive = total fluorescence flat and polarisation flat or rising; no compound was filed as active; the % refers to the polarisation; negative = inhibition;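 note: % of control where 0% means no effect; inhibitors lower the polarisation; unlabelled MLL peptide was the positive control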
Starred values were filed as active, the others as inactive; ? = inconclusive; . = not tested or not shown; [ ] = remark or other dose.

SMILES | ClpP mod | PINK1 modulator | D2 ag | gsp antag | Sfp PPTase inh | gsp agonist | Menin MLL FP FL
CCC(C)[C@H](NC(=O)[C@@H]1Cc2ccccc2CN1)C(=O)Nc1ccc2c(c1)OCO2 (some centres not stated) | -1.8% | -0.1% | -3.7 | 3% | -6% | -27% | .
COc1ccc(CCNS(=O)(=O)c2ccc(Br)cc2)cc1 | . | 2.3% | 1.6 | -9% | 6% | -9% | 3.9
CCOc1c(CNCCCSc2nc(C)cc(C)n2)cccc1OC | 0.2% | -0.5% | -6.0 | 8% | 10% | 12% | 1.8
Cc1cc2nc(-c3ccccc3)cc(=O)n2[nH]1 | 0.4% | -0.6% | -5.1 | -2% | -22% | 3%[15.4 µM] | 3.8
COc1ccc(CN2C(=O)c3cccnc3C2=O)cc1S(=O)(=O)N1CCOc2ccc(Cl)cc21 | -1.7% | -1.6% | 1.2 | -1% | 15% | 9% | .
Cc1sc(NC(=O)CN2CCCC2)nc1-c1ccc2c(c1)CCN2C(=O)c1ccc(F)cc1 | . | 1.0% | 8.7 | -9% | -23% | -40%[15.4 µM] | -2.9
O=C(O)c1ccc(N2C(=O)CC(N3C(=O)/C(=C/c4ccc(Cl)cc4)SC3=S)C2=O)cc1 (configuration not stated) | -1.0% | 2.9% | -3.2 | -22% | ? | -50%[inhibitor] | 20
Cc1cc(C)c(OCC(=O)Nc2nnc(C3CC3)s2)c(C)c1 | . | 1.3% | -1.1 | -6% | . | -2%[15.4 µM] | .
Cn1c(SCC(N)=O)nnc1-c1ccc(S(=O)(=O)N2CCCC2)cc1 | . | 1.0% | -4.4 | 3% | 22% | -10%[15.4 µM] | .
COc1ccc(C(CCN)c2ccc3c(c2)OCO3)cc1 (configuration not stated) | 0.1% | -0.2% | -3.2 | -3% | 2% | -47%[inhibitor] | 9.3
CC1CCN(C(=O)N[C@@H](Cc2ccccc2)C(=O)O)CC1 | 0.5% | -0.3% | -4.8 | -5% | 26% | -28% | -0.6
CC(=O)NC1(NC(C)=O)CCN(C)CC1 | . | -0.8% | 2.2 | . | 5% | 0%[15.4 µM] | -0.9
CCC(C)(C)n1nnnc1C(C(C)C)N(CCCO)Cc1cc2cc(C)ccc2[nH]c1=O (configuration not stated) | -14% | -0.8% | -0.3 | -8% | 14% | -28% | 3.5
COC(=O)c1ccc(CO/N=C2\CCCc3nonc32)cc1 | -2.2% | 1.1% | 3.0 | -3% | 7% | 6%[15.4 µM] | 2.7
C/C(=N\NC(=O)c1ccn(C)n1)c1cccc(NC(=O)c2ccncc2)c1 | -4.8% | -0.8% | -4.1 | 8% | 8% | -31%[15.4 µM] | -1.5
Cc1ccc(N2C(=O)N(CC(=O)Nc3ccc(C)cc3Cl)C(=O)C2C)cc1 (configuration not stated) | 0.6% | 0.6% | -2.4 | 0% | . | 22% | .
Cc1cc(C)c(NC(=O)CN2CCOCCOCCOCCOCC2)c(C)c1 | 60% | 2.8% | -2.3 | 20% | . | 4% | .
CCC(=O)c1ccc(OCC(=O)OCC(=O)N2CCCc3ccccc32)cc1 | . | -2.5% | -1.4 | -3% | . | -17%[15.4 µM] | .
COc1cc(OC)cc(C(=O)Nc2ccc(C(=O)NCC3CCCO3)cc2)c1 (configuration not stated) | -0.3% | -0.1% | 0.0 | -1% | 5% | 13%[15.4 µM] | -0.5
Cc1occc1C(=O)NNC(=O)C1CCCC1 | -3.4% | 1.8% | -2.9 | 5% | 16% | -3%[15.4 µM] | 1.3
Cc1csc(NC(=O)c2ccc(N3CCCC3=O)cc2)n1 | -10% | -0.3% | 1.3 | -4% | -3% | 20% | 2.4
O=C(CNC(=O)c1ccc(Cl)cc1)c1ccc(Br)cc1 | . | 1.9% | 1.3 | 0% | 0% | -14% | 1.4
COc1cccc(NC(=S)N2CCN(C)CC2)c1 | . | 0.3% | 7.3 | 1% | 13% | -39% | 2.8
CCCNc1c(NS(=O)(=O)c2ccc(C)cc2C)c(=O)oc2ccccc12 | -2.0% | -1.1% | -6.6 | 1% | 9% | ? | .
CCOC(=O)CNS(=O)(=O)c1ccc2c3c(cccc13)C(=O)N2CC | . | 1.1% | -1.7 | 0% | 20% | 21%[15.4 µM] | -4.8
CC(=O)CSc1cc(-c2ccccc2)nc2ncnn12 | . | 2.0% | -8.6 | -10% | 12% | 5% | 3.3
Fc1ccc(N/N=C/c2ccncc2)c(F)c1 | 22µM* | -0.9% | 4.9 | 10% | -2% | 6% | 6.2
O=C(C1CCC(CNS(=O)(=O)c2cccs2)CC1)N1CCN(c2ccc(F)cc2)CC1 (configuration not stated) | . | 0.5% | ? | 35µM* | 10% | 22% | -1.4
COC(=O)[C@H](Cc1ccccc1)NC(=O)CC[C@H]1O[C@@H](n2ccc(=O)[nH]c2=O)[C@H](O)[C@@H]1O | 0.5% | 0.2% | 5.0 | . | . | . | .
N#Cc1ccccc1CSc1ccccn1 | -1.1% | 0.0%[38.3 µM] | -0.9 | -1% | 7% | -3% | 1.3
Cc1ccc(S(=O)(=O)NCCNC(=O)c2cc(OCC(F)(F)F)ccc2OCC(F)(F)F)cc1 | -2.7% | 11% | -2.4 | 9% | -1% | 22% | 7.3
CC[C@@H]1C/C=C\Cc2ccccc2[C@@H](C(=O)C[C@H](O)CC(C)=O)OC1=O | 1.8% | 0.2% | 2.0 | -3% | . | . | .
CCCCCCn1c(SCC(=O)NC2CCS(=O)(=O)C2)nc2ccccc2c1=O (configuration not stated) | -1.8% | 0.0% | -3.3 | . | . | ? | .
N#Cc1ccc(OCC(=O)OCC(=O)Nc2cc(C(F)(F)F)ccc2N2CCOCC2)cc1 | . | -0.7% | 2.0 | -16% | -2% | -5% | 6.4
COc1ccc(/C=C/C(=O)NC(=S)NNC(=O)c2cnccn2)cc1 | -0.8% | 0.3% | -6.7 | 5% | 19% | 7% | 2.9
Cc1cc(C)n(CC(=O)c2cccc(N)c2)n1 | . | -0.6% | 2.6 | 4% | 18% | -27% | -5.8
COCCCNC(=O)C(F)(F)C(F)(F)C(=O)NCCCOC | -13% | -0.4% | -6.2 | 7% | 8% | -8% | -2.1
CCOC(=O)CNC(=O)C1c2cc(OC)c(OC)cc2C(=O)N(C)C1c1ccccc1F (configuration not stated) | -18% | -2.9% | -1.3 | 10% | 16% | ? | -1.0
Cc1ccc2nc(-c3ccc(NC(=O)C(C)N4C(=O)c5ccccc5C4=O)cc3)sc2c1 (configuration not stated) | 25µM* | -0.9% | -3.2 | 11% | 5% | 25% | 6.5
CC(C)Oc1ccc(CNC(=O)CCC(=O)N2CCSc3ccccc32)cc1 | -0.8% | 2.4% | -5.2 | 3% | -2% | 6% | -3.1
CCOC(=O)c1c(NC(=O)c2ccccc2C)sc2c1CC(C)(C)OC2 | ? | 6.7% | 0.3 | -15% | 32µM* | -21% | 3.7
COC(=O)c1ccc(COc2ncnc3ccccc23)o1 | . | 2.4% | 2.6 | 13% | 10% | 14%[15.4 µM] | -1.4
COc1ccc(C2=NOC(C(=O)NCc3ccccc3)C2)cc1 (configuration not stated) | -2.3% | 6.2%[38.3 µM] | -2.9 | 8% | 4% | 9% | 4.3
O=C(Nn1c(SCc2ccccc2F)nc2ccsc2c1=O)c1ccccc1 | -2.3% | -3.6% | -1.9 | 4% | 14% | -4% | 3.6
CCC(=O)c1cn(CC(=O)NCc2cccnc2)c2ccccc12 | -0.8% | -1.9%[38.3 µM] | 0.1 | 4% | 8% | 1% | 0.8
CCOC(=O)c1sc(NC(=O)c2ccc(OC(C)=O)cc2)nc1C | . | 8.1% | -1.5 | -28% | 18% | -9%[15.4 µM] | 2.3
CCOC(=O)/C(C#N)=C\c1cccnc1 | 0.3% | 3.1% | -1.9 | 20% | 14% | -9%[15.4 µM] | -3.8
Cc1nc(C(=O)N2CCCC(C(=O)c3ccc(Cl)cc3)C2)cs1 (configuration not stated) | 1.2% | -0.3% | -1.5 | -7% | 19% | -34%[inhibitor] | 2.6
COc1ccc(C(CNC(=O)c2cccc(S(=O)(=O)Nc3ccccc3OC)c2)N2CCCCC2)cc1 (configuration not stated) | 1.5% | -2.1% | -7.6 | 1% | . | -12% | .
CCCCNC(=O)/C=C/c1ccc(OC)c(Br)c1 | -5.4% | 3.5%[38.3 µM] | -2.9 | 4% | -5% | -40%[inhibitor] | 0.7
COC(=O)c1ccc(C(=O)OC)c(NC(=S)N2CCC(N3CCCCC3)CC2)c1 | -5.7% | 1.0% | -6.7 | 1% | 1% | 0% | 2.7
CCN(CC)S(=O)(=O)c1ccc2c(c1)nc(SCC(=O)N(C)C1CCS(=O)(=O)C1)n2CC (configuration not stated) | . | 2.2% | -4.1 | 0% | . | 4%[15.4 µM] | .
CS(=O)(=O)Nc1ccccc1N=C(c1ccccc1)c1ccccc1 | -0.7% | 1.7% | -5.5 | 3% | 1% | -37%[inhibitor] | -3.8
COc1ccc(Oc2nc(-c3ccccc3)ncc2C(=O)O)cc1 | . | 0.2% | 4.6 | -16% | 13% | -14%[15.4 µM] | -7.6
Fc1cccc(CN(C2=NCCN2)c2c(Cl)cccc2Cl)c1 | 0.8% | 1.6% | -4.5 | 5% | . | . | .
COC(=O)c1ccccc1NC(=O)CCCn1nc([N+](=O)[O-])cc1C | . | 1.9% | 0.9 | 3% | 22% | 15% | -1.4
O=C(CSc1nnc(NC(=O)C2CC2)s1)Nc1ccc(F)cc1 | -3.8% | 0.3% | 0.7 | 0% | -10% | -8% | 1.6
C=CCn1c(COc2ccc(Cl)cc2)nnc1SCc1ccc(C#N)cc1 | 1.6% | 0.7% | -3.3 | ? | 2% | -2% | 2.5
CCCn1c(NC(=O)c2cccc(S(=O)(=O)N3CCCC3)c2)nc2ccccc21 | ? | 6.9%[38.3 µM] | -5.7 | -10% | 5% | -28% | 0.5
CN(C)S(=O)(=O)N1CCC(Oc2ccc(C(=O)NCCc3cscn3)cc2)CC1 | 0.8% | 1.2% | -3.0 | -5% | 13% | -7% | .

Screening results: PubChem, National Center for Advancing Translational Sciences (NCATS)
